Compound activity deposited in PubChem by National Center for Advancing Translational Sciences (NCATS).
Marburg entry = blocks Marburg virus binding or cell entry. Marburg virus pseudotype entry/binding inhibition, cell-based; control for the full effect not named in the record; many of its hits are not listed in these tables. Potency, µM (highest dose often 49.2 µM), inactives show at the highest dose activity change, negative = inhibition, usual class: inhibitors. hit rate 6.5% among 18,000; active means well fitted inhibition curve with a large enough effect; inconclusive means small, poorly fitted or top-dose-only effect; inactive means no such curve, though single readings can be large or run the other way; tested in HEK293 cells; further: luciferase read-out
LASV entry inh = blocks Lassa virus binding or cell entry | Lassa virus pseudotyped entry inhibition, cell-based qHTS; control for the full effect not named in the record; many of its hits are not listed in these tables | Potency, µM (titrated, usually from 49.2 µM), inactives show at the highest dose activity change, negative = inhibition, actives largely listed as inhibitors | hit rate 4.1% among 18,000; active = well fitted inhibition curve with a large enough effect; inconclusive = small, poorly fitted or top-dose-only effect; inactive = no such curve, though single readings can be large or run the other way; tested in HEK293 cells; further: luciferase read-out
Starred values were filed as active, the others as inactive; ? = inconclusive; . = not tested or not shown; & = joins results of further samples; ! = not active in a repeat; [ ] = another dose, or the depositor's remark. On the % scale 0 is the no-effect control and ±100 the full control effect; potency means the concentration at half of the fitted maximal effect.

Compound	Marburg entry	LASV entry inh
CC(C)C[C@H](NC(=O)[C@H](Cc1ccccc1)NC(=O)CNC(=O)CNC(=O)[C@@H](N)Cc1ccc(O)cc1)C(=O)N[C@@H](CCCN=C(N)N)C(=O)N[C@@H](CCCCN)C(=O)N[C@@H](Cc1ccc(O)cc1)C(=O)N1CCC[C@H]1C(=O)N[C@@H](CCCCN)C(=O)O	-13%	-8%
NC1(C(=O)O)CCc2cc(C(=O)O)ccc21 (stereo not given)	16%	0%
O=C(OCc1cn([C@H]2C[C@H](c3ccccc3)N(CC3CCCCC3)C[C@H]2O)nn1)c1ccccc1	?	-28%
COC(=O)[C@@H]1C[C@@H](NC(=O)c2cccc3c(C)c(C)[nH]c23)CN1Cc1cccc2ccccc12	1.8µM*	3.5µM*
COC(=O)C1CCN(Cc2ccc3c(c2)CN(C(=O)c2ccc(-n4cnnn4)cc2)CCO3)CC1	?	-7%
COc1cccc(-c2cc3c(c4c2ccn4C)C2CCC3C2)c1 (stereo not given)	-6%	.
CC=Cc1cc2ccccc2c2c(C(=O)OC)c(C(=O)OC)c(C(=O)OC(C)(C)C)n12	?	-15%[8.59 µM]
Cc1cc(C)n(Cc2cccc(C(=O)NCC3Cc4cccc(-c5ncccn5)c4O3)c2)n1 (stereo not given)	-24%	-4%
CC(C)=CCN1CCC2(CCc3ccccc32)CC1	?	-10%
COc1cccc(CS(=O)(=O)c2ccccc2)c1	10%	2%
C[C@]12CCC(=O)C=C1CCc1ccc(O)cc12	6%	-1%
CCCCC/C=C\C/C=C\CCCCCCCC(=O)O[C@@H](CO)COC(=O)CCCCCCCCCCCCCCCCC	6%&7%	0%&-7%
O[C@H]1CN(CC2CCCCC2)[C@@H](c2ccccc2)C[C@H]1n1cc(-c2ccc(F)cc2)nn1	?	-22%
CC(=O)OC1CC(OC(C)=O)[C@]2(C)C(CC(=O)[C@]3(C)C2CC[C@@]2(C)C(c4ccoc4)OC(=O)C4O[C@@]423)C1(C)C (stereo not given in full)	5%	-17%
COc1ccc(CNc2nc(-c3ccccc3CN(C)C)nc3ccccc23)c(OC)c1	7.9µM*	?
COC(=O)N[C@@H](c1ccc(Br)cc1)C(C(=O)OC)C(=O)OC	?	?
CCc1ccc2c(c1)N(CC(C)CN(C)C)c1ccccc1S2 (stereo not given)	14µM*	18µM*
C=CCN1CC[C@]23CCCC[C@H]2[C@H]1Cc1ccc(O)cc13	28µM*	?
CCCCCCN(CCCCCC)C(=O)Cc1c(-c2ccc(F)cc2)[nH]c2ccccc12	?	?
CCc1ccc(C(=O)C(C)CN2CCCCC2)cc1 (stereo not given)	?	?
CN(C)C1CCc2[nH]c3ccc(NC(=O)c4ccc(F)cc4)cc3c2C1 (stereo not given)	11µM*	-20%
C=C1c2cccc(OC)c2O[C@H](C(=O)OCC)[C@@H]1CCC(C)C	0%	4%
COc1ccc(-c2nc3c(c4c2C[C@H](c2ccccc2)OC4)CN(C(=O)N[C@@H](C)c2ccccc2)CC3)c(C)c1	?	1%[8.59 µM]
CCC1CN(CCNC(=O)C2CCCCN2C)Cc2cc(OC)ccc2O1 (stereo not given)	?	10%
OCC(CO)N[C@H]1C[C@](O)(CO)[C@@H](O)[C@H](O)[C@H]1O	-4%	1%
Cc1cc2oc(=O)cc(CN3CCOCC3)c2cc1Cl	10%	-12%
CC(=O)OC1CCC2(C)C(CCC3(C)C2C(=O)C=C2C4CC(C)(C(=O)OCCN5CCCCC5)CCC4(C)CCC23C)C1(C)C (stereo not given)	-10%	0%
C=C(CO)C1Cc2c(ccc3c2OC2COc4cc(OC)c(OC)cc4C2C3=O)O1 (stereo not given)	?	?
C=CCN1C[C@H](COC(=O)c2cccc(OC)c2)Oc2cccc(F)c2S1(=O)=O	25%	-10%
COc1ccc(CCNC(=O)c2cnn(-c3nccc(-c4ccco4)n3)c2C)cc1	57%[activator]	-10%
Cc1noc(C)c1-c1nc(NCc2cccnc2)c2ccccc2n1	3%	4%
O=c1cc(CN2CCCCCCC2)c2c(ccc3ccccc32)o1	?	-13%
C[C@H]1CC[C@@]2(NC1)O[C@@H]1C[C@H]3[C@@H]4CC[C@@H]5C[C@@H](O)CC[C@@]5(C)[C@@H]4CC[C@]3(C)[C@@H]1[C@@H]2C	-7%[17.8 µM]	-2%[17.8 µM]
CC(C)NC[C@@H](O)COc1ccccc1-n1cccc1	?	-6%
CSCC[C@H](NC(=O)[C@H](CC(C)C)NC(=O)CNC(=O)[C@H](Cc1ccc(O)cc1)NC(=O)[C@H](Cc1ccccc1)NC(=O)[C@H](CCCCN)NC(=O)[C@H](CC(N)=O)NC(=O)[C@@H]1CCCN1C(=O)[C@H](CC(=O)O)NC(=O)[C@H](C)NC(=O)[C@@H]1CCC(=O)N1)C(N)=O	11%	-9%
CC(=O)Oc1ccc(Cl)c2cccnc12	?	-8%
CC(C)CNc1ccc2c(c1)OC[C@H](CC(C)C)NS2(=O)=O	9%	-2%
Nc1nc2c(nc(Cl)n2C2OC(CO)C(O)C2O)c(=O)[nH]1 (stereo not given)	0%	-8%
Cc1cc2c(c(-c3cnccn3)c1)OC(CNC(=O)c1ccccc1C(F)(F)F)C2 (stereo not given)	-15%	-6%
CC(NC(=O)C1CCCN1C(=O)CN)C(=O)O (stereo not given)	14%	4%
COc1ccc([C@H]2C[C@H](n3cc(C4CC4)nn3)[C@@H](O)CN2C(=O)c2cccs2)cc1	1%	-7%
CN(Cc1ccco1)c1nc(-c2ccccc2Cl)nc2ccccc12	12%	-17%
CC[C@H](C)[C@H](NC(=O)[C@@H]1CCCN1C(=O)[C@H](CCC(=O)O)NC(=O)[C@@H](NC(=O)[C@H](Cc1ccccc1)NC(=O)[C@@H]1CCCN1C(=O)[C@@H](N)Cc1ccc(O)cc1)C(C)C)C(=O)O	-3%	0%
Cn1ccc2c(-c3ccc4c(c3)OCCO4)cc3c(c21)C1CCC3O1 (stereo not given)	-9%	-1%
COc1ccc(NC(=O)C[C@H]2C(=O)N(CCc3ccccc3)C[C@@H]2C)cc1	20%	-4%
O=C(Cl)COCc1ccccc1	-2%	-6%
O=C(NCCc1ccccc1)c1ccc(NC(=O)C2CCC2)cc1	86%[activator]	15%
COc1ccc2c(c1)N(C[C@H](C)CN(C)C)c1ccccc1S2	?	-26%[17.8 µM]
CCOC(=O)CN1C(=O)N[C@@H](c2ccccc2)C(C(C)=O)=C1C	-3%	22%
CC(C)Oc1cccc(-n2c(CCc3c[nH]c4ccc(Br)cc34)nc3ccccc3c2=O)c1	-16%	?
COc1ccc(C[C@H]2c3cc(OC)c(OC)cc3CCN2C)cc1OC	6%[17.8 µM]	28%[17.8 µM]
CCn1c(-c2ccccc2F)nc2cc(NC(C)=O)cc(C(=O)N3CCCC3c3nccs3)c21 (stereo not given)	-6%	-6%
CC[C@H]1C(O)C[C@H]2CCN3C(=O)CCC[C@H]1[C@H]23 (stereo not given in full)	-5%[107 µM]	-7%[107 µM]
COc1ccccc1CNc1ncnc2ccc(-c3ccc(N(C)C)cc3)cc12	-28%	?
CC[N+](C)(CC)CC(=O)Nc1c(C)cccc1C	-8%	-1%
COc1ccc(C(=O)c2ccc(C)cc2)c(O)c1	26%	-13%
O=C(O)COc1nc(Cl)c(Cl)cc1Cl	2%	-6%
COc1ccc(Cl)cc1-c1ccc(C(=O)O)s1	23%	-2%
COc1ccc(C(=O)/C(Br)=C\C(=O)O)cc1	-25%	?
C/C1=C/C(=O)O[C@@H]2C[C@@H](CC[C@H](C)/C=C\CC1)O[C@@](O)(C1CSC(=O)N1)C2 (stereo not given in full)	?	-17%&-23%

Quoted at random: five entries already listed
Compound	Marburg entry	LASV entry inh
COc1ccc(C(=O)/C(Br)=C\C(=O)O)cc1	-25%	?
COc1ccc(Cl)cc1-c1ccc(C(=O)O)s1	23%	-2%
C/C1=C/C(=O)O[C@@H]2C[C@@H](CC[C@H](C)/C=C\CC1)O[C@@](O)(C1CSC(=O)N1)C2 (stereo not given in full)	?	-17%&-23%
CC(C)Oc1cccc(-n2c(CCc3c[nH]c4ccc(Br)cc34)nc3ccccc3c2=O)c1	-16%	?
CCn1c(-c2ccccc2F)nc2cc(NC(C)=O)cc(C(=O)N3CCCC3c3nccs3)c21 (stereo not given)	-6%	-6%

More entries follow:
Compound	Marburg entry	LASV entry inh
C=C(CCN1C=C(C(=O)OCC)C(c2ccccc2)NC1=O)c1ccc(Cl)cc1 (stereo not given)	14%[8.59 µM]	-4%[8.59 µM]
CCCCCC(O)CCCC(=O)O (stereo not given)	41%&-3%[activator]	9%&-1%
CC1C(=O)N(Cc2cn(CCC3OCCO3)nn2)CCS(=O)(=O)N1Cc1ccc(-c2ccncc2)cc1 (stereo not given)	9%	18%
COCCN1C(=O)N(C)C(c2ccccc2)C(C(C)=O)=C1C (stereo not given)	?	-18%[8.59 µM]
CCCCCCN1C[C@H](n2cc(C3CC3)nn2)[C@@H](O)C[C@H]1c1ccc(OC)cc1	-20%	.
CCCCC/C=C\C[C@@H](O)/C=C/C=C/C=C/[C@@H](O)CCCC(=O)O	-7%	2%
C#CC1(O)C2C=C(OC)C(=O)C1C(c1ccccc1)C2C (stereo not given)	26%[8.59 µM]	9%[8.59 µM]
CCCCc1cc2c(cn1)=C(OC(=O)c1ccco1)C(C)(OC(=O)CC)C(=O)C=2 (stereo not given)	45%[activator][8.59 µM]	14%[8.59 µM]
CCCCN=C(N)N=C(N)N	1%	-13%
NS(=O)(=O)c1ccc(N=Nc2c(=O)[nH]c3ccc4[nH]cccc4c23)cc1	?	.
C[C@@H]1COc2cc(Br)ccc2S(=O)(=O)N1	-24%	23%
Cc1nc2sccn2c1CN1CCOc2ccc(CN3C[C@@H](C)O[C@@H](C)C3)cc2C1	-22%	-10%
CC(C)C(=O)NCC1CCC2(CCN(Cc3ccc(-c4ccccc4Cl)o3)CC2)O1 (stereo not given)	-11%	0%
CCCCC/C=C\C/C=C\C/C=C\CCCCC(=O)NCCc1ccc(O)c(O)c1	16%	11%
O=C(O)Cc1ccc(-c2ccccc2)cc1	9%[17.8 µM]	-8%[17.8 µM]
CC(=O)c1ccc([C@@H]2C=C[C@H](O)[C@@H](CO)O2)cc1	23%[8.59 µM]	-21%[8.59 µM]
CC1(C)C(C=C(Cl)Cl)C1C(=O)OC(C#N)c1cccc(Oc2ccccc2)c1 (stereo not given)	-13%&-22%	-21%&-7%
Cc1cnc(C)c(-c2ccc(F)c3c2OC(CNC(=O)/C=C/c2cccs2)C3)n1 (stereo not given)	-27%	?
CC(C)C1C(=O)N(Cc2cn(CCC3OCCCO3)nn2)CCS(=O)(=O)N1Cc1ccc(-c2ccc(F)nc2)cc1 (stereo not given)	?	-11%
N[C@@H](C(=O)O)c1ccc(O)c(C(=O)O)c1	7%	-10%
CC(=O)Oc1ccc(C2(c3ccc(OC(C)=O)cc3)Oc3ccccc3NC2=O)cc1	-21%	10µM*
COc1ccc(NC(=O)c2ccc(-c3ccccc3C(F)(F)F)o2)cc1	25%	31%[activator]
CN(C)CCc1cc2c(c3c1ccc1ccccc13)OCO2	13µM*	?
CCOC(=O)C1=C(C)c2ccccc2OC1(CC)C(=O)OCC (stereo not given)	?	-17%
CCN(CC)CCOC(=O)C1(C2CCCCC2)CCCCC1	11µM*!	?
NC(=O)COCCN1CCN(C(c2ccccc2)c2ccc(Cl)cc2)CC1 (stereo not given)	?	-17%
CO[C@H](C(=O)[C@@H](O)[C@@H](C)O)C1Cc2cc3cc(O[C@H]4C[C@@H](O[C@H]5C[C@@H](O)[C@H](O)[C@@H](C)O5)[C@@H](O)[C@@H](C)O4)c(C)c(O)c3c(O)c2C(=O)[C@H]1O[C@H]1C[C@@H](O[C@H]2C[C@@H](O[C@H]3C[C@](C)(O)[C@H](O)[C@@H](C)O3)[C@H](O)[C@@H](C)O2)[C@H](O)[C@@H](C)O1 (stereo not given in full)	?	-10%&-18%
COc1ccc(-c2nc3c(c4c2C[C@H](c2ccccc2)OC4)CN(C(=O)c2ccco2)CC3)c(C)c1	13%[8.59 µM]	-5%[8.59 µM]
COC(=O)C1=C(C)N(Cc2ccco2)C(=O)N[C@H]1c1ccccc1	-10%	5%
CC(C)C[C@H](NC(=O)[C@@H](Cc1c[nH]c2ccccc12)NC(=O)[C@H](Cc1ccc(O)cc1)NC(=O)[C@H](CO)NC(=O)[C@H](Cc1c[nH]c2ccccc12)NC(=O)[C@H](Cc1cnc[nH]1)NC(=O)[C@@H]1CCC(=O)N1)C(=O)N[C@@H](CCCN=C(N)N)C(=O)N1CCC[C@H]1C(=O)NCC(N)=O	24%	1%
NCc1cc(=O)[nH]o1	15%&3%	20%&-1%
CCCCC[C@H](O)/C=C/[C@H]1[C@H](O)CC(O)[C@@H]1C/C=C\CCCC(=O)O (stereo not given in full)	26%	-2%
Cc1ccc(-c2ccc(CN3C(C)C(=O)N(Cc4cn(CCC5OCCCO5)nn4)CCS3(=O)=O)cc2)cc1 (stereo not given)	?	.
C=C(Br)CO[C@@H]1C=C[C@@H](c2ccccc2)O[C@@H]1COC	9%[8.59 µM]	33%[8.59 µM]

This is a subset. The share of hits here may be higher or lower than overall.
